TRPML1 inh – human mucolipin-1 channel inhibition; AID 624415; TRPML1-inducible cells, Ca2+ dye fluorescence, FDSS; stronger effect = lower value; inhibition of EC80 agonist-evoked calcium signal; hit rate 0.02% among 390,000; activity change, negative = inhibition, % (no concentration beside the values); in the data active means activity change below about -50%; inconclusive means about -30% to -50%; inactive means above about -30%;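 note: stimulus is agonist 54-4 at its EC80 concentration; % is set by controls: 0 for no effect and ±100 for the full control effect; compound concentration not given in the record; the text of the record puts the active cut at -80%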
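Calcium fluorescence in TRPML1-DL cells induced overnight with Tet: a 110 s read after compound pin addition, then a 110 s antagonist read after challenge with 54-4 at 4 uM final (EC80).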
D2 agonist – activates the human D2 dopamine receptor. P14416. DiscoveRx PathHunter D2 beta-arrestin, luminescence, 90 min; 100% = 57 uM dopamine signal. activation, % (no concentration beside the values). hit rate 0.084% among 360,000; in the data active = activation above about 40%; inconclusive = about 15% to 40%; inactive = below about 15%; note: compound concentration not given in the record; the text of the record calls up to 30% inactive
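Agonist mode: compounds alone added to overnight-plated D2 PathHunter cells for 90 min at 37 C, with 57 uM final dopamine (EC100) defining full response. Beta-arrestin recruitment detected by chemiluminescent reagent, read after 1 h at ambient temperature.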
TRPML1 ag – human mucolipin-1 channel agonism | Q9GZU1 | TRPML1-expressing cells, Ca2+ dye fluorescence, FDSS; host cell line not named in the record; reference of the full effect not given here | hit rate 0.12% among 410,000 | activation, % (no concentration beside the values); in the data active = activation above about 50%; inconclusive = about 30% to 50%; inactive = below about 30%; note: 0% is about no effect; the text of the record puts the active cut at 80%
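Kinetic FDSS Ca2+ read in Tet-induced TRPML1-DL cells (ABD Ca8 dye plus quencher, 45-90 min RT loading): baseline, then compound, then 110 s agonist window; EC80 agonist 54-4 at 4uM final added afterwards for a 110 s antagonist window.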
PINK1 modulator – modulators of PINK1 expression; hit rate 0.2% among 410,000; AID 624263; Potency, µM (titrated, usually from 76.6 µM), for inactives: at the highest dose activation (PINK1 increase), usual class: activators; PINK1 immunofluorescence, high-content cytometry, 24 h; active = well fitted activation curve with a large enough effect; inconclusive = small, poorly fitted or top-dose-only effect; inactive = flat fitted curve, though single readings scatter; cell line not stated here;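 note: potency is the fitted concentration of half-maximal effect; % of control where 0% means no effect; nearly all actives have a fitted effect of over 65% in size; a mitochondrial uncoupler was the plate control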
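Stable cell line, 250 cells/well, 12 h attachment; compounds pinned at 5 concentrations, 24 h; CCCP control. Fixed with nuclear dye, primary antibodies 12 h at 10 degrees C, secondary plus cell stain; laser-scanning cytometer read.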
Six1-Eya2 blk – blocks human Six1 binding to Eya2 | activity change, % (concentration not given with the values) | AlphaScreen GST-Six1/His-Eya2 binding, biochemical; stronger effect = lower value; control for the full effect not named in the record | Q15475+O00167 | hit rate 0.56% among 360,000 | AID 651725; in the data active = activity change below about -65%; inconclusive = about -30% to -65%; inactive = above about -30%; note: % is set by controls: 0 for no effect and ±100 for the full control effect
Target sequence (O00167 whole entry, looked up): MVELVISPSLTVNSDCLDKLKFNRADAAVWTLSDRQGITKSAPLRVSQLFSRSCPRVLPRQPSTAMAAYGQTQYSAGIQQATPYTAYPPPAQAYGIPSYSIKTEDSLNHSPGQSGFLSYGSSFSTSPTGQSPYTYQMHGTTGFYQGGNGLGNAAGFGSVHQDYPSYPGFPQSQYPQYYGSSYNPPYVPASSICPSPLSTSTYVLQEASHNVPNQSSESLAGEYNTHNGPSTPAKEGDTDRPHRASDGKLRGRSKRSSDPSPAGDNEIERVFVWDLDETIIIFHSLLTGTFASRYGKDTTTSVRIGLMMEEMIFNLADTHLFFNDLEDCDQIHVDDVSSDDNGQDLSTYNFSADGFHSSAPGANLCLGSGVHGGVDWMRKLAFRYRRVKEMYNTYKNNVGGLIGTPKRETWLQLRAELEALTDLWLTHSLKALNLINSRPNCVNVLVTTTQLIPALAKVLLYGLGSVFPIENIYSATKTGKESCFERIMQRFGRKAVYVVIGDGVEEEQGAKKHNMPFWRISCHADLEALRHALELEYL
Target sequence (Q15475 whole entry, looked up): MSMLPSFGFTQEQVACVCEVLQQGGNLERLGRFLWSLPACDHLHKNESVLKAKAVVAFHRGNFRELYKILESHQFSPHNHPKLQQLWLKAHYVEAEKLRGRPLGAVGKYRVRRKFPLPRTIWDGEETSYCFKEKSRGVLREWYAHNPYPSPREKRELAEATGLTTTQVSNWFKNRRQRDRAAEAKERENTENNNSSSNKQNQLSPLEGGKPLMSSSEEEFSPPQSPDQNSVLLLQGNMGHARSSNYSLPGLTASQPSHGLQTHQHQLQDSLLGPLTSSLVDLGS
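GST-Six1 + His-Eya2 (5X stock: 250/500 nM); Tris pH 8.0, 300 mM NaCl, 0.05% BSA, 0.02% Tween 20; GSH donor/Ni acceptor beads; 1 h 37 °C dark; AlphaScreen readout.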
D2 PAM – potentiates the human D2 dopamine receptor allosterically | P14416 | AID 624464 | hit rate 0.23% among 360,000 | potentiation, % (concentration not given with the values) | DiscoveRx D2 beta-arrestin cells, luminescence, 90 min; 100% = 57 uM dopamine signal; active = potentiation of 50% or more; inconclusive = 30% to 50%; inactive = 30% or less;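 note: compound concentration not given in the record; tested on top of an EC20 dose of dopamine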
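PathHunter D2 cells, attached overnight at 37 deg C, received compound in DMSO plus dopamine at EC20 (50 nM final) for 90 min at 37 deg C. Beta-arrestin recruitment was read as luminescence after 1 h with detection reagent at ambient temperature.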
Active calls of the source: *; ? = inconclusive; nt = not tested or not shown; [ ] = another dose, or the depositor's remark.

SMILES	TRPML1 inh	D2 agonist	TRPML1 ag	PINK1 modulator	Six1-Eya2 blk	D2 PAM
O=C1c2oc3ccccc3c(=O)c2C(c2ccccc2F)N1Cc1ccc2c(c1)OCO2 (configuration not stated)	5	nt	-0.2	-0.1%	nt	nt
CCOC(=O)C1=C(CC)Nc2ccccc2N=C1NC(=O)Nc1ccccc1OC	-5	-3.7	0.6	13%	-4	-17
c1ccc(C2CNCc3c2ccc2ccccc32)cc1 (configuration not stated)	31	-2.8	2.0	?	-5	-19
O=C(NC(=S)Nc1ccccc1)C1CCCCC1	-5	-0.8	-0.4	5.3%	2	-8
O=C(Nc1nnc(-c2ccc3c(c2)CCCC3)o1)C1CCCCC1	-2	-31	-0.9	0.0%	10	-3
COc1cccc(/C=N/NC(=O)c2cc3c(OC)ccc(OC)c3[nH]2)c1O	15	-4.2	2.8	-0.5%	-68*	52*
COc1ccc(NC(=S)NCc2ccc3c(c2)OCO3)cc1	20	-6.5	0.7	-1.0%	-8	-3
COC(=O)c1sc(N)c(C(=O)OC)c1Cn1ncc(Cl)c(Cl)c1=O	2	-2.3	1.2	15%	-10	-10
COc1cc(C(=O)NCc2cccc(Cl)c2)ccc1OCC(=O)N1CCOCC1	-3	-0.6	0.4	2.3%	5	-6
CC1=C(C(=O)Nc2cccnc2)C(c2ccc(Cl)cc2)n2nc(SCc3ccccc3)nc2N1 (configuration not stated)	10	nt	-0.4	0.3%	nt	nt
CSc1ccccc1NC(=O)CN(Cc1ccccc1)S(C)(=O)=O	6	-2.0	-0.5	-1.4%	6	-3
COC(C[C@@H](O)C[C@@H](O)[C@H](C)OCc1ccccc1)OC	0	-1.4	-0.7	0.9%	2	-12
COc1ccc2cc(-c3cc(C(=O)OCC(=O)Nc4c(C)n(C)n(-c5ccccc5)c4=O)c4ccccc4n3)ccc2c1	-13	0.5	0.3	3.2%	13	3
Cc1ccc(-n2ncc3c(=O)[nH]c(SCC(=O)N4CCCc5ccccc54)nc32)cc1	-2	-4.5	-0.8	1.0%	-5	-7
CCOC(=O)C1CCCN(c2oc(-c3ccc(F)cc3)nc2C#N)C1 (configuration not stated)	5	-2.7	1.9	4.4%	-2	6
COc1ccc(O)cc1	nt	-2.0	nt	-0.8%	1	-9
Cc1ccc(C(=O)N/N=C2\CCc3ccccc32)c(C)c1	31	0.1	1.9	-0.4%	7	-23
Cc1cc(C)n(CCNC(=O)CC2C(=O)NCCN2Cc2ccc(C)o2)n1 (configuration not stated)	8	2.3	0.9	0.7%	5	-4
C/C(=N\N(c1ccccc1)c1ccccc1)c1ccc(N)cc1	28	-3.8	1.1	5.8%	-26	-15
O=C(Nc1cccc(NC(=O)c2ccccc2[N+](=O)[O-])n1)c1ccccc1[N+](=O)[O-]	-1	-1.1	-0.5	8.6%	-7	12

Reprinted from the part before: 5 entries, followed by the next part.
SMILES	TRPML1 inh	D2 agonist	TRPML1 ag	PINK1 modulator	Six1-Eya2 blk	D2 PAM
COc1ccc(O)cc1	nt	-2.0	nt	-0.8%	1	-9
Cc1ccc(C(=O)N/N=C2\CCc3ccccc32)c(C)c1	31	0.1	1.9	-0.4%	7	-23
Cc1cc(C)n(CCNC(=O)CC2C(=O)NCCN2Cc2ccc(C)o2)n1 (configuration not stated)	8	2.3	0.9	0.7%	5	-4
C/C(=N\N(c1ccccc1)c1ccccc1)c1ccc(N)cc1	28	-3.8	1.1	5.8%	-26	-15
O=C(Nc1cccc(NC(=O)c2ccccc2[N+](=O)[O-])n1)c1ccccc1[N+](=O)[O-]	-1	-1.1	-0.5	8.6%	-7	12
CN(Cc1nc(-c2cnccn2)no1)Cc1cccc2ccccc12	7	-0.8	0.8	1.5%	0	-10
O=C(C1CC(c2ccccc2O)=NO1)N1CCc2ccccc2C1 (configuration not stated)	-9	-3.5	-0.1	0.3%[38.3 µM]	-2	-5
Cc1ccccc1NC(=O)CSc1nc2ccc(NC(=O)COc3ccccc3F)cc2s1	3	nt	2.0	7.2%	nt	nt
COC(=O)c1ccc(Cn2c(SCc3cccc(C)c3)nc3ccncc32)cc1	15	nt	2.8	1.5%	nt	nt
CC1=C(C(=O)N2CCOCC2)C(c2cccs2)NC(=O)N1 (configuration not stated)	-11	-1.2	0.3	-0.5%	9	11
CCCSc1ccc([C@@H]2[C@H]3C(=O)N(C)C(=O)[C@H]3[C@]3(C(=O)OC)CCCN23)cc1OC	3	-2.0	-0.6	2.0%	-7	-3
CCOCCN(C=O)c1cccc(OC)c1	-3	-0.9	-0.1	4.8%[38.3 µM]	3	-3
Cc1ccc(N(CC(=O)NC2CCCC2)C(=O)CCC(=O)Nc2nc(C)cs2)cc1	13	-2.4	4.7	1.1%	-2	-5
COc1ccc(S(=O)(=O)N(C)CC(=O)N2CCN(c3ccc(F)cc3)CC2)cc1OC	15	0.0	0.1	6.4%[38.3 µM]	0	10
CCc1ccc(-n2c(=O)c3sc4ccccc4c3n(CC(=O)NCc3ccccc3)c2=O)cc1	5	nt	0.0	-0.3%	nt	nt
CN(C)c1ccc(Sc2nnc(NC(=O)Nc3ccc(Cl)cc3Cl)s2)cc1	16	-1.8	-0.5	11%	-1	3
O=C(O)/C=C/S(=O)(=O)c1ccc2ccccc2c1	11	-2.4	0.7	1.2%	-11	-4
O=C(c1cccc(S(=O)(=O)N2CCOCC2)c1)N1CCCC(C(F)(F)F)C1 (configuration not stated)	-2	-2.9	-0.8	0.8%	9	-16
CCCSc1nnc(NC(=O)CCc2ccccc2)s1	3	8.7	0.0	0.7%	6	-10
CCN1CCN(Cc2nc3c(c(=O)n(C)c(=O)n3C)n2CC(=O)c2ccccc2)CC1	5	-2.2	0.8	3.1%	2	-6
CC1(C)COC(c2cccn2Cc2ccc(F)cc2Cl)=N1	3	-4.1	23	3.5%	1	-19
CC(O)C(=O)N/N=C/c1cccc(Cl)c1Cl (configuration not stated)	26	-1.1	0.9	-3.8%	1	-5
Cc1nn(C(=O)CCC(=O)NCc2ccc(OC(C)C)cc2)c2ccccc12	2	-2.6	0.2	-1.7%	-2	-4
O=C(Nc1cccc(C(F)(F)F)c1)C1CCCO1 (configuration not stated)	-2	-6.8	0.6	0.8%	1	-4
COc1ccccc1/C=C/C(=O)N1CCOCC1	14	-3.4	-0.3	-1.1%	-14	-11
O=C(O)C1=C[C@H](c2ccc(F)cc2)C[C@H](OCCCCO)O1	95	0.8	-1.3	-0.8%	-8	-2
CCCn1c(=N)c(C(=O)NCC2CCCO2)cc2c(=O)n3cccc(C)c3nc21 (configuration not stated)	10	-5.3	-0.1	-1.4%	?	-13
COc1cccc(NC(=O)CN(C)C(=O)c2cc3ccccc3cc2OC)c1	12	-4.2	0.3	-1.6%	-1	-3
CSc1nc(N2CCCC2)c2c(c1C#N)CC(C)(C)OC2	27	-2.3	2.1	-2.4%	1	-13
Cc1c(C(=O)NCCSCc2ccc(F)cc2)cnn1-c1ccc(Cl)cc1	15	1.8	3.2	0.0%	-7	-1
CCOC(=O)CCN(Cc1sccc1C)S(=O)(=O)c1ccc(F)cc1	1	-2.4	1.5	-0.8%[38.3 µM]	42	-12
N#CCCn1cc(C(=O)Nc2ccc(C(=O)O)cc2)c(-c2cccc(Br)c2)n1	10	-5.7	0.9	-0.2%	-10	-3
COc1ccc2c(c1)c(CC(=O)Nc1ccc(C)cc1)c(C)n2C(=O)c1ccc(Cl)cc1	11	0.9	0.5	-0.3%	8	-10
NC(=O)CC(NC(=O)c1ccccc1)c1ccc(N2CCCCCCC2)c([N+](=O)[O-])c1 (configuration not stated)	-8	-3.9	-0.3	1.5%	-12	-10
COc1ccc(/C=N/OC(=O)Nc2ccccc2)cc1[N+](=O)[O-]	3	0.7	0.4	0.7%	1	-4
O=C(CSc1nc2scc(-c3ccccc3)c2c(=O)[nH]1)N1CCCCC1	10	8.4	1.9	-1.2%	22	3
CCn1cnc2c1c(=O)n(CC(=O)NN)c(=O)n2Cc1ccccc1	-6	1.2	0.5	1.9%	0	1
CN(C)C(=O)c1cc2c(c(-c3cccc(C4=CCCCC4)c3)n1)[C@@H](CCO)N(S(=O)C(C)(C)C)C2 (some centres not stated)	nt	-3.9	-0.7	1.1%	10	-3
COc1ccc(N(CC(=O)NCc2ccccc2C)S(=O)(=O)c2ccccc2[N+](=O)[O-])c(OC)c1	-4	-0.1	2.5	0.2%	-8	-5
O=C(NCCc1ccc(Cl)cc1)c1ccc(Br)s1	33	-2.5	0.8	5.2%	3	-10
COc1cccc2c1SCc1ccccc1C2CC(N)=O (configuration not stated)	37	-1.3	1.3	-2.4%	1	-1
COc1ccc(C2=NOC(C(=O)NCc3cccnc3)C2)cc1 (configuration not stated)	11	2.2	0.8	8.5%	-4	-1
COCCCN(C(=S)Nc1cc(Cl)cc(Cl)c1)C(C)c1ccncc1 (configuration not stated)	5	1.5	1.6	?	-4	-10
CCOc1ccc(OCC(=O)Nc2ccccc2C(F)(F)F)cc1	0	9.4	-0.8	4.8%	17	-2
Cc1ccc(Cn2cccc2/C=C2/C(=N)N3C=CSC3=NC2=O)cc1	12	-3.8	1.2	12%	5	-3
O=C(c1cccc(Br)c1)N1CCN(c2cnn(-c3ccccc3)c(=O)c2Cl)CC1	0	1.4	0.0	1.1%	-1	-3
O=C(/C=C/c1ccccc1)N1CCN(CCN2C(=O)c3cccc4cccc(c34)C2=O)CC1	27	-1.8	1.6	-3.7%	-7	-6
CCN(C(=O)Cn1ncc2c(=O)oc3ccc(C)cc3c21)c1cc(OC)ccc1OC	24	nt	-0.7	3.6%	nt	nt
Cc1ccc(C)c(NC(=S)N(CCc2ccncc2)C(C)C)c1	-16	1.8	-0.9	3.5%	0	-7
CCNS(=O)(=O)c1ccc(S(=O)(=O)N(Cc2ccccn2)C2CCCCC2)cc1	13	-1.4	-1.0	0.0%	-3	9
C#CC[N+]1(CC#Cc2ccc(C)cc2)CCCCC1	29	-0.3	1.5	0.1%	-2	-9
Cn1ccnc1SCC(=O)c1ccc(Cl)cc1	0	-0.1	-0.6	1.0%	-1	-5
CC(=O)NCCC(=O)Nc1cc(S(=O)(=O)N2CCOCC2)ccc1N1CCCC1	-12	-2.5	0.1	3.4%	1	-16
CN1CCc2c(sc3c2C(=O)NC(c2ccccn2)N3)C1 (configuration not stated)	2	-1.7	5.2	1.9%	-67*	-5
O=S(=O)(c1ccc(Br)s1)N1CCN(Cc2ccc3c(c2)OCO3)CC1	2	1.5	-0.6	0.1%	-14	-14
CC1CC(C)CN(c2oc(-c3ccco3)nc2C#N)C1 (configuration not stated)	-6	1.2	-0.8	1.3%	-12	-16
Fc1ccccc1NC(=S)N1CCN(Cc2ccccc2)CC1	-1	0.4	0.4	-1.8%	3	-9
O=C1N=C(N2CCN(c3ccccc3)CC2)S/C1=C\c1ccco1	-12	-2.7	2.7	1.6%	-9	-1
